# From PubChem
# PrP UTR inh = inhibition of PrP 5' UTR reporter expression | cell-based PrP 5' UTR mRNA reporter, plate reader | inhibition, % (no concentration beside the values) | 340,000 tested, 0.35% active;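 active means every replicate at 50% or more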;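 further: 0 = median of the neutral control wells; tested in H4 reporter cells; numbers are from one replicate; inactives centre near -14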
# Mtb hypoxia inh = Mtb hypoxia fluorescent reporter inhibition; AID 1159583; M. tuberculosis hypoxia-regulated fluorescent reporter, fluorescence; 300,000 tested, 0.1% active; fluorescence inhibition, % (no concentration beside the values);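 active means 35 to 45% if threefold the growth effect, above 45% if 1.5-fold the growth effect; inactive means the rest, general growth blockers included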;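 further: wells of about 50 µL received 100 nL stock; 0% = vehicle wells and 100% = reference inhibitor wells; whole bacteria with a GFP reporter of the hypoxia response; strong numbers were not always called active; many hits fall short of the cut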
# Autofluor counter = compound fluorescence in toxin protease inhibitor counterscreen | fluorescence intensity (test concentration not listed) | compound autofluorescence counterscreen, microsphere flow cytometry; stronger effect = higher value | 360,000 tested, 3.1% active;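 active means at least 3 SD above the mean of all compounds, about 16000 in these data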;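 further: 100 nL of 1 mM stock went into each well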
# Sa RN4220 lethal = S. aureus RN4220 growth inhibition. OD600, 16 h. 330,000 tested, 0.33% active. inhibition, % (concentration not given with the values);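 active means z-score of -3 or lower and OD600 up to 0.18 on both plates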;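 further: plate controls were untreated cells for no effect and reference antibiotic for full effect; stock transfer was 100 nL into about 80 µL; one replicate is shown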
# ugtP null kill = growth inhibition of S. aureus ugtP deletion strain. S. aureus RN4220 ugtP deletion, OD600 growth, 16 h; some inactives read as strong as hits. growth inhibition, % (concentration not given with the values). 330,000 tested, 0.54% active;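 active means z-score under -3 and OD600 up to 0.15 on both plates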;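 further: plate controls were untreated wells for no effect and antibiotic for full effect; wells of about 80 µL received 100 nL stock; the first replicate is given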
# BJeLR viability = kills HRASV12-expressing BJeLR cells. 300,000 tested, 0.17% active. BJeLR (HRASV12) viability, CellTiter-Glo ATP luminescence, 48 h; reference of the scale not given here. inhibition, % (test concentration not listed). AID 1554;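 active means replicate mean above 50%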;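 further: 50 nL library stock added to about 25 µL; numbers are from one replicate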
# Mtb hypoxia inh growth = also measured in Mtb hypoxia inh; calls as there; growth inhibition, %; measured here: M. tuberculosis growth (absorbance);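 0% = vehicle and 100% = reference antibiotic; read after six days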
# Active calls of the source: *; . = no result given; & = joins results of further samples.
SMILES,PrP UTR inh,Mtb hypoxia inh,Mtb hypoxia inh growth,Autofluor counter,Sa RN4220 lethal,ugtP null kill,BJeLR viability
O=S(=O)(N/N=C/c1ccc2c(c1)OCO2)c1ccc(Br)cc1,-22,.,.,4062,.,.,-4
COc1ccc(Nc2nc(C)nc3sc4c(c23)CCC4)cc1O,-50,1,4,5078,4.6,-9,-6
Cc1cc(OCC(=O)Nc2ncn[nH]2)ccc1Cl,-21,9,0,3075,1.7,-2,.
C/C(=C\C(=O)C(F)(F)F)Nc1ccc(C)cc1,-27,1,7,2652,-1.7,2,-19
COCCNC(=O)c1cccc(OC2CCN(Cc3cccc(SC)c3)CC2)c1,-21,11,1,3684,-1.0,-5,4
CC(=O)c1cccc(NC(=O)COc2ccc3oc(=O)cc(C)c3c2)c1,-16,.,.,4087,1.6,9,1
Cc1[nH]nc2c1C(=O)CCC2,-17,.,.,4684,2.8,3,5
CC(=O)c1cccc(NC(=O)c2ccoc2C)c1,-3,9,6,3403,5.1,4,4
COC(=O)C1=C(C(=O)OC)C2(OC1c1ccccc1C)C(=O)c1ccccc1C2=O (centres undefined),-13,15,9,3355,-14,-3,-2
CC(C)CN(C(=O)COC(=O)Cc1ccc(Cl)cc1)c1c(N)n(Cc2ccccc2)c(=O)[nH]c1=O,-1,6,10,6163,-3.3,-8,5
Cc1sc2ncn(CC(=O)NCC(=O)N3CCN(c4ccccc4F)CC3)c(=O)c2c1C,-12,-3,-6,4397,5.4,5,-5
O=c1c2ccccc2ncn1CCCCOc1ccc(Br)cc1,-34,2,-6,5786,3.2,1,-6
Cc1ccc(OCCNC(=O)CCc2ccccc2)cc1C,-15,6,-9,6115,0.5,18,1
C=CC1=CCN(S(=O)C(C)(C)C)[C@@H]1CCO (some centres undefined),7,-4,2,3822,1.4,0,.
COc1ccc(CCN2C(=O)NC(NC(=O)C(C)(C)C)(C(F)(F)F)C2=O)cc1OC (centres undefined),1,4,3,2393,3.3,0,5
C(=NN=Cc1ccccn1)c1ccccn1,.,2,7,.,4.5,13,.
O=C(NCc1ccco1)c1ccccc1NS(=O)(=O)c1ccc(Br)s1,-24,4,5,22236*,57,45,10
Cc1ccc(S(=O)(=O)NC(C)(C)C)cc1C(=O)OC(C)C(=O)NC1CC1 (centres undefined),-18,-8,1,5720,4.2,2,-6
O=C(O)c1ccccc1CSc1nnc2c(n1)[nH]c1ccccc12,-29,-10,5,4073,5.2,7,3
O=C(CC1CC=CCC(NC(=O)OCC2c3ccccc3-c3ccccc32)C(=O)OCC2CCCN2C1=O)NC(CO)Cc1ccccc1 (centres undefined),.,1&10,9&11,.,3.4&7.9,-8&-2,.
Cc1ccc(NS(=O)(=O)c2ccc(NC(=O)CSc3ccc(Cl)cc3)cc2)c(C)c1,-19,3,11,4054,4.9,-12,2
CCN1CCN(C(=O)Cn2c(=O)sc3ccccc32)CC1,-19,.,.,6026,1.7,7,5
Nc1nc(-c2ccccc2Br)cs1,-10,.,.,3073,0.6,16,-1
COc1cc(C)c(Br)cc1S(=O)(=O)NCCN1CCOCC1,-34,3,2,4784,6.0,-5,-6

# 3 consecutive compounds already listed, quoted:
SMILES,PrP UTR inh,Mtb hypoxia inh,Mtb hypoxia inh growth,Autofluor counter,Sa RN4220 lethal,ugtP null kill,BJeLR viability
Cc1ccc(OCCNC(=O)CCc2ccccc2)cc1C,-15,6,-9,6115,0.5,18,1
C=CC1=CCN(S(=O)C(C)(C)C)[C@@H]1CCO (some centres undefined),7,-4,2,3822,1.4,0,.
COc1ccc(CCN2C(=O)NC(NC(=O)C(C)(C)C)(C(F)(F)F)C2=O)cc1OC (centres undefined),1,4,3,2393,3.3,0,5

# Looked up above:
# `Cc1ccc(NS(=O)(=O)c2ccc(NC(=O)CSc3ccc(Cl)cc3)cc2)c(C)c1` in BJeLR viability: 2
# `O=C(O)c1ccccc1CSc1nnc2c(n1)[nH]c1ccccc12` in BJeLR viability: 3
# `COc1ccc(CCN2C(=O)NC(NC(=O)C(C)(C)C)(C(F)(F)F)C2=O)cc1OC` (centres undefined) in BJeLR viability: 5
# `Cc1ccc(OCCNC(=O)CCc2ccccc2)cc1C` in ugtP null kill: 18

# Returning to the listing with the 3 entries that preceded the break.
SMILES,PrP UTR inh,Mtb hypoxia inh,Mtb hypoxia inh growth,Autofluor counter,Sa RN4220 lethal,ugtP null kill,BJeLR viability
CCN1CCN(C(=O)Cn2c(=O)sc3ccccc32)CC1,-19,.,.,6026,1.7,7,5
Nc1nc(-c2ccccc2Br)cs1,-10,.,.,3073,0.6,16,-1
COc1cc(C)c(Br)cc1S(=O)(=O)NCCN1CCOCC1,-34,3,2,4784,6.0,-5,-6
O=C1CC(c2ccccc2Cl)C2=C(COC2=O)N1 (centres undefined),-46,4,14,23482*,3.0,-12,1
O=C(NC1CCCC1)C1C2C=CC3(CN(Cc4cccs4)C(=O)C13)O2 (centres undefined),-18,7,2,5663,3.0,12,1
CN(c1nc(-c2ccc(Br)cc2)cs1)C1CCS(=O)(=O)C1 (centres undefined),-44,4,3,4479,-4.0,7,-5
COc1ccc(NC(=O)CN(C)C(=O)Cc2c[nH]c3ccccc23)cc1,-80,6,2,3539,0.4,4,.
COc1cccc(CC2(CO)CCCN(Cc3cn[nH]c3-c3ccccc3)C2)c1 (centres undefined),-20,1,1,2343,3.3,5,-4
CC(C(=O)NCc1ccccc1)N1C(=O)CN(C)C(=O)c2ccccc21 (centres undefined),-7,.,.,3522,-0.5,-6,-13
Cn1ccnc1SCC(=O)Nc1cccc2ccccc12,-20,-2,13,19695*,5.1,2,0
Cn1c(=O)c(-c2ccccc2[N+](=O)[O-])c(Cl)c2ccccc21,-16,13,12,3111,11,15,-2
O=C(C1CCC(=O)N1Cc1ccccc1Cl)N1CCN(c2cccc(Cl)c2)CC1 (centres undefined),-23,0,10,3294,-12,-8,-9
COc1ccc(C(=O)NCCc2nnc3ccc(SCC(=O)NCc4ccccc4)nn23)cc1,-1,7,6,4042,0.5,-1,-1
Cc1ccc(NC(=S)NN(C)c2cc(C)nc(C)n2)cc1,-8,0,-3,2300,6.0,14,-2
COCCN(C(=S)Nc1cccc(OC)c1)C1CCN(C(C)=O)CC1,0,4,6,1873,1.5,5,-11
COc1ccc(C2C3C(=O)N(N(C)c4ncc(C(F)(F)F)cc4Cl)C(=O)C3ON2C)cc1 (centres undefined),-1,3,-2,2066,1.1,3,2
COc1ccc(C2C=CCN(S(=O)(=O)c3cccc4cccnc34)C(C)C(=O)N2Cc2ccc(F)cc2)cc1 (centres undefined),.,-4,1,.,1.4,8,.
O=C(CSc1ncccc1-c1nc2ccccc2[nH]1)NC1CC1,.,7,3,8002,2.2,10,-1
CCOC(=O)NC(=O)CSc1nnc(C2CC2)n1Cc1ccco1,-9,-4,5,4191,2.1,7,-9
N=c1c2c3c(sc2ncn1Nc1ccccc1)CCC3,.,6,-2,.,3.4,0,8
CC1CN(C(=S)Nc2ccccc2C(F)(F)F)CC(C)O1 (centres undefined),-33,15,2,6021,1.5,0,3
Cc1ccc(C2=[N+]([O-])C3(CCCCC/C3=N\O)N(O)C2(C)C)o1 (centres undefined),-15,.,.,3495,.,.,3
CC(=O)Oc1cccc(N2C(=O)c3ccccc3C2=O)c1,-11,-3,2,2176,3.9,-3,-6
Cc1nn(C)c(C)c1NC(=O)COc1ccc(Cl)cc1Br,-8,5,7,6202,0.0,-3,.
C=CC1c2cc(C)ccc2N(S(=O)(=O)c2ccc(C)cc2)C(c2ccccc2)C1(C#N)S(=O)(=O)c1ccccc1 (centres undefined),.,12,11,.,11,14,.
Cn1cccc1C(=O)NCC1CCCCC1,1,12,12,4634,0.2,0,7
NC(=O)c1ccccc1NS(=O)(=O)Cc1ccccc1,-10,.,.,.,-1.9,1,9
CCCc1nc2ccccc2c(C(=O)O)c1CC,-3,1,3,4393,1.5,5,13
CS(=O)(=O)Nc1ccccc1C(=O)N1CCOCC1,-30,-2,2,10651,7.2,5,4
Cc1cccc(CN2CCCN(Cc3ccc(Cl)cc3)S2(=O)=O)c1,-14,15,6,2829,2.1,0,-3
CCc1c(C)nc2[nH]nc(-c3ccccc3)n2c1=O,-29,.,.,4270,2.9,0,4
O=C(COC(=O)C12CC3CC(CC(O)(C3)C1)C2)NC(=O)NCc1ccco1,-16,.,.,2189,2.9,7,3
O=C(c1ccc(-n2cnnn2)cc1)N(C1CCCCC1)C1CCCCC1,-34,0,-3,2253,-0.2,-1,-1
Cc1c(S(=O)(=O)NCCc2ccccc2)c(=O)n(C)c(=O)n1C,-5,2,7,4444,2.2,12,10
OCCCCO,-17,5,7,4149,3.0,5,.
CCOC(=O)c1c(-c2ccc(OC)cc2)oc2ccc(O)cc12,-11,13,11,3716,2.5,15,6
COc1cc(C2SCC(=O)N2Cc2ccccc2)ccc1O (centres undefined),-10,16,8,3946,6.8,7,-3
CCOC(=O)C1CCCC1=NNC(=O)CN(c1cc(OC)ccc1OC)S(=O)(=O)c1ccccc1 (centres undefined),.,10,5,.,-1.7,2,.
COC(=O)c1ccc(C=NNC(=O)C(=O)NCc2ccccc2)cc1,.,-8,1,.,0.3,0,.
COc1ccc(Nc2ncc(C(=O)N3CCC(C(N)=O)CC3)c3ccccc23)cc1,-22,20,11,4098,2.9,3,-7
COc1ccc(C(=O)O/N=C(\C)c2nccs2)cc1,-12,.,.,3208,.,.,5
CCOC(=O)c1sc(=NC(=O)c2ccc(S(=O)(=O)N(C)c3ccccc3)cc2)n(C)c1C,5,4,2,1954,-3.5,2,8
CC(C)C[C@@H](CN=[N+]=[N-])N1CCN(Cc2ccccc2)CCC1=O,-14,.,.,3765,.,.,6
Cn1cccc1CC(=O)NNC(=S)Nc1ccc(F)cc1,-17,.,.,2695,.,.,2
O=C(N/N=C/c1cccc(O)c1)c1cc(-c2ccc3c(c2)OCO3)n[nH]1,-7,.,.,2555,.,.,-4
O=C(O)CCn1c(O)c(C=C2N=c3ccccc3=N2)sc1=S,3,.,.,7029,2.5,0,-1
CCOC(=O)CNC(=S)SC,-27,9,-4,6677,3.7,4,-1
CCOc1cc(C=NO)cc(Br)c1OCc1ccc(Cl)cc1,.,5,8,.,-7.7,91*,.
O=C(c1ccc(COc2c(F)c(F)cc(F)c2F)o1)N1CCN(c2ccccc2)CC1,-6,2,5,3207,8.6,-2,-1
OCCc1c[nH]c2ccccc12,-13,.,.,5550,-1.2,-6,-4
CCc1ccc(NC(=S)N2CCN(S(=O)(=O)c3ccccc3)CC2)cc1,-13,8,9,6008,-4.9,4,.
Cc1ccc(C(=O)NCCN2CCN(C(=O)c3ccc(C)c(C)c3)CC2)cc1C,-18,0,-1,6425,-6.0,0,-1
CCCCn1c(N)c(N(CCC(C)C)C(=O)COC(=O)c2sccc2C)c(=O)[nH]c1=O,-13,7,12,3580,-3.8,-3,.
Oc1ccc(C[C@@H]2CNCCN2CCc2cccc(F)c2)cc1,-17,.,.,4257,.,.,7
CCc1nnc(NC(=O)CSc2nc3cc(OC)ccc3cc2C)s1,-38,1,-22,2597,2.1,5,2
O=C1OCCN1C(=O)[C@H]1[C@H](c2ccccc2)C(c2ccccc2)=NN1c1ccc(Br)cc1,-19,5,2,4170,0.2,49,.
O=C(N/N=C/c1ccccn1)c1ccc2nc[nH]c2c1,-25,.,.,5070,.,.,-7
CC(C)CCN1CCN(Cc2cnc(N3CCCC3)s2)CC1CCO (centres undefined),2,9,8,4336,2.1,6,-4
CC(=O)c1cn(C)c(=O)[nH]c1=O,-8,0,14,4882,2.2,3,-12
